Autofluor counter – compound fluorescence in toxin protease inhibitor counterscreen | fluorescence intensity (concentration not given with the values) | hit rate 3.1% among 360,000 | compound autofluorescence counterscreen, microsphere flow cytometry; stronger effect = higher value;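 active = at least 3 SD above the mean of all compounds, about 16000 in these data; inconclusive = too few beads counted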;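 also: 100 nL of 1 mM stock went into each well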
Sa RN4220 lethal – growth inhibition of S. aureus RN4220, primary screen, OD600. AID 1259311, 2017. hit rate 0.33% among 330,000. inhibition, % (concentration not given with the values). 16 h;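 active = z-score of -3 or lower and OD600 up to 0.18 on both plates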;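 also: plate controls were untreated cells for no effect and reference antibiotic for full effect; stock transfer was 100 nL into about 80 µL; one replicate is shown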
Mtb hypoxia rep – PubChem AID 1159583; M. tuberculosis hypoxia-regulated fluorescent reporter, fluorescence; fluorescence inhibition, % (no concentration beside the values); hit rate 0.1% among 300,000;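 active = 35 to 45% if threefold the growth effect, above 45% if 1.5-fold the growth effect; inactive = the rest, general growth blockers included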;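 also: wells of about 50 µL received 100 nL stock; 0% = vehicle wells and 100% = reference inhibitor wells; whole bacteria with a GFP reporter of the hypoxia response; strong numbers were not always called active; many hits fall short of the cut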
BJeLR viability – MLPCN primary cell-based screen for lethality selective to Ras in HRASV12 cells; inhibition, % (no concentration beside the values); AID 1554, 2009; hit rate 0.17% among 300,000; BJeLR (HRASV12) viability, CellTiter-Glo ATP luminescence, 48 h; reference of the scale not given here;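 active = replicate mean above 50%; inconclusive = above 50% but judged a plate artefact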;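 also: 50 nL library stock added to about 25 µL; numbers are from one replicate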
ugtP null kill – growth inhibition of ugtP-null S. aureus, primary screen, RN4220 ugtP deletion, OD600. AID 1259309, 2017. growth inhibition, % (test concentration not listed). hit rate 0.54% among 330,000. 16 h; some inactives read as strong as hits;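 active = z-score under -3 and OD600 up to 0.15 on both plates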;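 also: plate controls were untreated wells for no effect and antibiotic for full effect; wells of about 80 µL received 100 nL stock; the first replicate is given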
PrP UTR inh – inhibition of PrP 5' UTR reporter expression. cell-based PrP 5' UTR mRNA reporter, plate reader. inhibition, % (test concentration not listed). hit rate 0.35% among 340,000;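 active = every replicate at 50% or more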;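 also: 0 = median of the neutral control wells; tested in H4 reporter cells; numbers are from one replicate; inactives centre near -14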
Mtb hypoxia rep growth – second read-out of Mtb hypoxia rep, no call of its own (marks repeat the call); growth inhibition, %; measured here: M. tuberculosis growth (absorbance);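 0% = vehicle and 100% = reference antibiotic; read after six days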
Numbers without * were called inactive; ? = inconclusive; nt = not tested or not shown; & = joins results of further samples.

SMILES	Autofluor counter	Sa RN4220 lethal	Mtb hypoxia rep	Mtb hypoxia rep growth	BJeLR viability	ugtP null kill	PrP UTR inh
COc1ccc(N(C(=O)COc2cccc(C)c2)S(=O)(=O)c2ccc(C)cc2)cc1	2271	-2.6	-1.5	0.9	-6.5	6.0	-4.6
CCn1c2ccccc2c2cc(/C=N/n3cn[nH]c3=S)ccc21	9754	nt	nt	nt	-1.3	nt	6.7
Nc1nc(SCC(=O)c2cc3ccccc3o2)n[nH]1	2638	3.7	-0.2	-1.0	6.2	0.8	-8.9
COc1cccc(C(=O)COC(=O)COc2c(C)cc(C)cc2C)c1	3411	3.3	11.8	-1.8	nt	4.4	-10.2
CC(C)(C)NC(=O)CCN(N=Cc1ccncc1)C1=NS(=O)(=O)c2ccccc21	nt	3.3	0.4	9.0	nt	7.5	nt
CC(=O)N(Cc1cc(=O)[nH]c2ccccc12)c1ccccc1C	2940	7.7	6.1	0.8	4.3	5.5	-21.6
Cc1cccn2c(=O)c(C=NO)c(NCc3ccccc3)nc12	nt	3.4	1.3	-4.5	nt	1.3	nt
CCC(C)(CC(=O)O)CC(=O)Nc1cc(C(F)(F)F)cc(C(F)(F)F)c1 (stereo not drawn)	4190	30.7	-4.4	-0.7	0.0	13.4	-13.4
CN1CCN(CCC(=O)Nc2cccc(Br)c2)CC1	6352	4.0	1.5	-2.6	-7.3	15.3	-20.0
S=C(NCC1CCCO1)Nc1ccc(Nc2ccccc2)cc1 (stereo not drawn)	?	-1.3	7.2	3.0	9.5	-4.0	-28.7
Cn1c(C=NNC(=O)c2ccccc2)nc2ccccc21	nt	2.0	-7.3	7.0	nt	1.4	nt
CCOc1ccccc1CN1CCN(Cc2[nH]c3ccccc3c2C)CC1CCO (stereo not drawn)	1943	-0.8	6.4	3.6	3.9	3.9	-0.8
CCCNC(=O)N1C2CCC1C(C(=O)OC)=C(c1ccc(OC(F)(F)F)cc1)C2 (stereo not drawn)	nt	-6.4	0.3	0.0	nt	-11.0	nt
CCOC(=O)c1c(C)[nH]c(C)c1C(=O)COc1ncnc2ccccc12	3523	2.3	12.7	3.9	-2.0	-2.5	-25.0
O=C(N/N=C/c1cccc(OC(=O)N2CCOCC2)c1)c1cccs1	2315	nt	nt	nt	6.1	nt	-13.2
CCCc1nn(-c2ccccc2)c2c1C(c1cccs1)C(C#N)=C(N)O2 (stereo not drawn)	10183	4.6	2.2	-1.7	-4.0	-5.8	-31.2
CCOCCn1c(CN2CCN(C(c3ccccc3)c3ccccc3)CC2)nc2c1c(=O)n(C)c(=O)n2C	3929	-3.8	1.8	1.8	1.5	11.7	-9.2
Cc1ccc(Cl)cc1NC(=S)N(CCN(C)C)Cc1cccs1	3030	1.3	6.0	-4.0	1.0	2.1	-6.0
COc1ccc(Cc2c(O)nc(SCC(=O)NC34CC5CC(CC(C5)C3)C4)[nH]c2=O)cc1	4410&4552	6.5&4.8	10.8&4.8	5.2&-4.9	-1.6&9.7	6.2&3.4	-9.7&-28.3
O=C1CC(c2ccc(Cl)cc2)n2nc(NS(=O)(=O)c3ccc(F)cc3)nc2N1 (stereo not drawn)	2548	-8.1	15.4	8.9	6.7	-4.7	-33.9
Cc1c(-c2nc(-c3ccc(C(F)(F)F)cc3)no2)n(C)oc1=O	5411	nt	nt	nt	-5.4	nt	-87.8
CC(C)(C)C(=O)Nc1cccc(-c2nc3ccccc3[nH]2)c1	2930	-15.7	8.2	10.4	-5.2	-2.7	-20.1
COc1cc(NC(=O)CSc2nc(C)cs2)cc(OC)c1	11248	4.0	8.7	10.3	15.8	10.2	6.4
CC1=C(C(=O)NC2CC(C)(C)Cc3c2cnn3-c2cccc(F)c2)OCCO1 (stereo not drawn)	4287	3.5	2.5	-6.9	0.1	6.9	-16.7
Cc1ccc(/C=N/NC(=O)c2c(-c3ccccc3)noc2C)c(O)c1	3753	nt	nt	nt	3.0	nt	26.2
(further entries)
SMILES	Autofluor counter	Sa RN4220 lethal	Mtb hypoxia rep	Mtb hypoxia rep growth	BJeLR viability	ugtP null kill	PrP UTR inh
O=C(Nc1ncn[nH]1)c1ccccc1Br	10725	-2.5	-0.1	-5.3	2.9	7.0	13.9
O=C(COc1ccc(Cl)cc1)N1CCCCC1	2490	-0.6	nt	nt	-0.6	1.9	-40.2
Cc1cccc(CSCCNC(=O)CN2C(=O)c3ccccc3S2(=O)=O)c1	4156	-0.1	10.4	0.1	-9.7	-0.3	-12.9
CCCCn1c(=O)n(CC(O)c2ccccc2)c(=O)c2c1ncn2C1CCCC1 (stereo not drawn)	9517	4.7	7.2	9.7	-6.8	0.7	-22.0
CCCCc1ccc(NC(=O)C2CCN(S(C)(=O)=O)CC2)cc1	5340	2.5	-0.5	6.2	2.2	3.3	-26.0
COc1ccc(C)cc1N(CC(=O)NC1CCCC1)C(=O)CCC(=O)Nc1cc(C)on1	4114	0.1	nt	nt	3.0	0.9	-8.8
O=c1c2ccccc2nc(-c2ccc(Cl)cc2Cl)n1CCCn1ccnc1	3525	-2.5	nt	nt	4.1	-1.6	-6.0
O=C(NCCc1ccc(O)cc1)c1ccc(Cl)cc1	2957	3.1	nt	nt	0.2	3.5	-41.4
Cc1ccc(N2CCN(S(=O)(=O)N3CCCCC3)CC2)cc1C	5166	3.1	-6.5	1.0	-3.7	6.6	-4.5
CCN(CC)c1ccc(NC(=O)CCc2nnc3ccc(N4CCCC4)nn23)c(C)c1	4872	5.6	nt	nt	1.3	-7.8	-14.5
COc1ccc(N=C2SCC(=O)N2Cc2ccccc2)cc1	1961	12.3	12.3	9.6	-5.8	-2.7	-7.5
O=C(CN1CCN(CCO)CC1)Nc1ccc(Cl)cc1C(=O)c1ccccc1	8723	2.7	15.2	1.0	-0.5	2.2	9.4
O=C(Cc1ccccc1)NNS(=O)(=O)c1ccc([N+](=O)[O-])cc1	2181	9.6	7.5	0.4	-5.1	0.9	-12.0
CC(C)CC(CN=[N+]=[N-])N1CCN(CC(C)C)CCC1=O (stereo not drawn)	nt	3.3	6.4	9.1	nt	-0.2	nt
NC(N)=NN=Cc1c(Cl)cccc1Cl	nt	-5.3&-1.4	-7.1&-9.4	-5.2&4.0	nt	4.6&-3.0	nt
COc1ccc(NC(=S)NCCCc2ccccc2)cc1	2359	5.0	17.1	4.1	6.0	-2.8	-17.7
CCOc1ccc(CCNC(=O)c2nn(C)c3c2CS(=O)(=O)c2ccccc2-3)cc1	5722	3.9	1.9	1.9	4.5	1.0	-3.8
CCOc1ccccc1NC(=O)NCc1ccccc1	2664	5.3	9.1	8.2	-6.1	4.0	5.7
Cc1ccc(O)c(CNCCNCc2cc(C)ccc2O)c1	2823	nt	nt	nt	8.5	nt	7.6
O=c1cc(N2CCN(Cc3ccccc3)CC2)c(-c2ccccc2)n[nH]1	3879	2.9	17.0	7.3	-0.4	9.7	-14.4
Cc1cc(C)c(C)c(S(=O)(=O)NCc2ccc(C(=O)N3CCN(C)CC3)cc2)c1C	5394	nt	nt	nt	0.9	nt	-23.4
CC(C)C(=O)Nc1c2c(nn1-c1ccccc1)CSC2	5026	1.6	12.6	3.9	0.4	6.6	-13.7
Cc1c(C(=O)NCC2CCCO2)sc2nc(-c3ccc(F)cc3)cn12 (stereo not drawn)	4393	-6.6	8.3	8.5	3.5	-13.9	-15.0
CN1CCN(CCn2c(=S)[nH]c3ccccc3c2=O)CC1	3792	1.7	11.9	3.2	-3.9	0.1	-24.0
COc1ccc(/C=C/C(=O)Nc2cccc(S(=O)(=O)NC3=NCCCCC3)c2)cc1OC	6036	2.9	-4.1	1.5	nt	6.1	-15.0
(more compounds)
SMILES	Autofluor counter	Sa RN4220 lethal	Mtb hypoxia rep	Mtb hypoxia rep growth	BJeLR viability	ugtP null kill	PrP UTR inh
Nc1nonc1-n1nnc(C(=O)NN=Cc2cc(Br)cs2)c1-c1ccccc1	nt	-1.8	-10.7	4.1	nt	4.0	nt
C=CCNC(=O)C(=O)NN=C1CCN(C)CC1	13336	6.1	4.7	-2.5	-4.1	17.6	-33.5
O=C(NCc1cccnc1)C1c2ccccc2C(=O)N1Cc1ccccc1 (stereo not drawn)	5474	3.9	8.2	9.9	17.4	1.4	-37.5
COc1ccc(CCNC(=O)CSc2nc(O)c(CCC(C)C)c(=O)[nH]2)cc1OC	9416	5.3	13.1	9.3	-1.7	12.4	-12.0
O=C(Nc1nc(-c2cccs2)cs1)c1ccc(S(=O)(=O)N2CCCCC2)cc1	5143	-0.8	6.9	7.1	6.7	12.2	-13.7
C/C(=N/NC(=O)COc1cc(C)ccc1C(C)C)C(=O)O	2686	nt	nt	nt	-13.9	nt	3.2
CCOC(=O)C1CCCN(CCSc2ccc(C)cc2)C1 (stereo not drawn)	3500	3.5	6.4	7.0	5.6	8.4	-36.8
CCCN(C(=O)CSCc1ccccc1C)c1c(N)n(Cc2ccccc2)c(=O)[nH]c1=O	?	-2.7	-3.2	-3.4	12.1	-3.3	-6.2
O=C(CCOc1ccccc1)NCC(c1ccco1)N1CCCCC1 (stereo not drawn)	5969	3.8	4.3	2.5	6.5	-7.9	-26.2
N#Cc1ccccc1OCC(=O)N1CCN(CC(=O)Nc2ccc(F)cc2)CC1	6352	4.8	3.8	6.9	nt	3.3	-17.4
NC(=O)NC(=O)CC1S/C(=N/N=C2\CSC(=O)N2)NC1=O (stereo not drawn)	3169	nt	nt	nt	2.7	nt	-6.0
COc1ccc(OC)c(NS(=O)(=O)c2ccc(Cl)s2)c1	8504	12.3	1.6	6.2	0.1	-13.1	-26.5
Cc1ccc(N(C(=O)c2sc(C)nc2C)C(C(=O)NC(C)(C)C)c2ccncc2)cc1 (stereo not drawn)	4478	2.1	-0.1	5.5	10.8	10.7	-24.0
O=C(Nc1ccc2c(c1)OCO2)C1CC(c2cccc(Br)c2)=NO1 (stereo not drawn)	4242	nt	nt	nt	-5.5	nt	-21.9
Cc1ccccc1CNC(=O)C1CCCN(c2nnc(C)c3c(C)n(-c4ccccc4)nc23)C1 (stereo not drawn)	10752	3.3	4.1	-4.6	0.1	6.8	-34.9
c1ccc(CCn2nnnc2CN2CCN(C3CCCC3)CC2)cc1	4105	3.4	4.5	2.5	2.0	6.6	-12.2
COc1ccccc1N1CCN(C(=O)Oc2ccccc2)CC1	5329	0.7	-0.9	5.6	-7.5	-1.0	-80.2
Cc1noc(NS(=O)(=O)c2ccc(NC(=O)CSc3nc4c(cc3C#N)CCCCC4)cc2)c1C	24886*	8.2	13.9	4.3	7.7	11.8	-27.1
Cc1ccccc1-n1c(SCC(=O)Nc2ccccc2Cl)nc2n[nH]c(C)c2c1=N	4808	6.6	8.7	1.0	4.3	-4.0	-8.1
C=CCNC(=O)/C(=C\c1ccc(OC)cc1)NC(=O)c1ccc([N+](=O)[O-])cc1	2645	nt	nt	nt	-11.1	nt	-14.2
COc1ccc(C2/C=C\CN(S(=O)(=O)c3ccc(C)cc3)[C@H](Cc3ccccc3)C(=O)N2Cc2ccc(F)cc2)cc1 (stereo partly drawn)	4221	nt	nt	nt	-3.9	nt	-0.5
COc1ccc(-c2oc3ncn4nc(Cc5ccccc5)nc4c3c2-c2ccc(OC)cc2)cc1	9505	4.0	15.8	-1.8	-9.8	-4.9	-26.2
CCOc1ccc(OCC)c(NC(=O)C2CCN(c3nn4c(=O)cc(C)nc4s3)CC2)c1	3858	6.0	0.5	7.6	-5.0	-1.0	-10.5
CC(c1ccon1)N(C)Cc1c(C(=O)N(C)Cc2ccccc2)nc2ccccn12 (stereo not drawn)	4620	6.6	6.6	6.0	nt	3.9	-10.2
Cc1sc(-c2c(C#N)c(N)nc3c2CCCCCC3)cc1[N+](=O)[O-]	4931	0.3	14.9	1.6	-2.3	-1.6	-12.3
O=C(CN1CCCCC1)Nc1nc(-c2ccccc2)cs1	3851	-1.2	5.9	-4.4	-0.1	5.8	-43.5

Part of the list above, reformatted:
canonical_smiles,Autofluor counter,Sa RN4220 lethal,Mtb hypoxia rep,Mtb hypoxia rep growth,BJeLR viability,ugtP null kill,PrP UTR inh
O=C(Nc1nc(-c2cccs2)cs1)c1ccc(S(=O)(=O)N2CCCCC2)cc1,5143,-0.8,6.9,7.1,6.7,12.2,-13.7
COc1ccc(-c2oc3ncn4nc(Cc5ccccc5)nc4c3c2-c2ccc(OC)cc2)cc1,9505,4.0,15.8,-1.8,-9.8,-4.9,-26.2
Cc1ccc(N(C(=O)c2sc(C)nc2C)C(C(=O)NC(C)(C)C)c2ccncc2)cc1 (stereo not drawn),4478,2.1,-0.1,5.5,10.8,10.7,-24.0
